VDR inhibitor: inhibitors of human vitamin D receptor; VDR-SRC2-3 peptide fluorescence polarization, 2 h; Potency, µM, for the others: max response, negative = inhibition, usual class: inhibitors; actives 0.93% (n = 400,000); AID 504847; active = well fitted inhibition curve with a large enough effect; inconclusive = small, poorly fitted or top-dose-only effect, or another doubt; inactive = no such curve, though single readings can be large or run the other way; note: series mostly up to about 120 µM
Target sequence (P11473 whole entry, looked up): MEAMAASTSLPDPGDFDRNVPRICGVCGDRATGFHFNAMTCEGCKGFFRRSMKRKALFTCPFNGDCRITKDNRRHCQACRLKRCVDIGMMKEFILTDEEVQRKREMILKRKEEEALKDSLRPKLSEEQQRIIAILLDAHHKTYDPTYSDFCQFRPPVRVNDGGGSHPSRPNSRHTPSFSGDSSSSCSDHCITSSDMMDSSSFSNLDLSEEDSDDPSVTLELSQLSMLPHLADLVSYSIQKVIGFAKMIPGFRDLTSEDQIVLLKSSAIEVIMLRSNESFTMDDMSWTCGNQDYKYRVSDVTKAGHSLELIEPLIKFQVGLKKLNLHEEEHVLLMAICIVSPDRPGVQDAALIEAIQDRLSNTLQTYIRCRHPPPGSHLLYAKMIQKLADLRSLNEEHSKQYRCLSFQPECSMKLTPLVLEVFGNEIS
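VDR–SRC2-3 interaction, FP format. Cmpds 23 nl via pintool, brief spin, 2 h ambient incubation.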
Numbers without * were called inactive; ? = inconclusive; & = joins results of further samples. % is set by controls: 0 for no effect and ±100 for the full control effect; potency is the fitted concentration of half-maximal effect. Not all compounds are listed (hit frequency here may not be typical).

#	SMILES	VDR inhibitor
1	O=C(Cc1ccccc1)Nc1ccccc1N1CCCC1	18%
2	Cc1ccc(N/N=C2\CS(=O)(=O)N(C)c3ccsc32)cc1	?
3	C=CCc1cc(S(=O)(=O)c2ccc(O)c(CC=C)c2)ccc1O	5%
4	COc1cccc(/C=N/NC(=O)CNC(=O)c2cccnc2)c1O	17%
5	COc1ccc(C)cc1NC(=O)CN1CCN(S(=O)(=O)c2ccc(F)cc2)CC1	-8%
6	CCCCNC(=O)c1ccc(NC(=O)CC2SC(N3CCCC3)=NC2=O)cc1 (configuration not stated)	3%
7	O=C(CCCN1C(=O)CCC1=O)Nc1cccc(C(F)(F)F)c1	10%
8	COc1ccccc1NC(=O)N1CCCC1C(=O)Nc1nnc(C(C)C)s1 (configuration not stated)	2%
9	OCC1C2c3ccccc3C(c3ccccc32)C1CO (configuration not stated)	1%
10	CCCN1CCC(NC(=O)Cc2ccccc2C)CC1	0%
11	COc1cc2c(c(OC)c1OC)-c1ccc(SC)c(=O)cc1C(NC=O)CC2 (configuration not stated)	?
12	Cc1cccc(-c2nc3ccc(C(=O)NCCN4CCN(C)CC4)cc3nc2-c2cccc(C)c2)c1	5%
13	CCc1ccc(CCC(=O)Nc2nnc(CC)s2)o1	13%
14	COCC(C)n1c(C)cc(C(=O)COC(=O)/C=C/c2cccc(F)c2)c1C (configuration not stated)	-15%
15	CCn1nccc1C(=O)Nc1cccc(C)c1C	-5%
16	CCOc1ccc(CN2CCNC(=O)C2CC(=O)N(C)CC2CCOCC2)cc1 (configuration not stated)	-21%
17	N[C@H](C(=O)O)[C@H](O)C(=O)O	5%&-7%&0%
18	CC(C)N(C)C1CCN(C(=O)Nc2ccc(Cl)c(Cl)c2)CC1	4%
19	Cc1ccccc1C(=O)/C=C1/c2ccccc2CC(C)(C)N1C	-9%
20	CCC(C)NS(=O)(=O)c1ccc(NS(=O)(=O)c2ccc(F)cc2)cc1 (configuration not stated)	-6%
21	COc1cccc(-c2nc(CS(=O)(=O)CC(=O)NCCc3ccc(OC)c(OC)c3)c(C)o2)c1	?
22	COc1ccc(Cl)cc1NC(=O)COC(=O)Cc1cccs1	-27%
23	CSCCC(=O)NC1CC(C)(C)Cc2c1cnn2-c1ccccc1C (configuration not stated)	0%
24	O=C(CCc1ccccc1)NNC(=O)Nc1cccc(Cl)c1	-12%
25	N#CC1=C(N)C(C#N)(C#N)C(c2ccncc2)C2CN(C(=O)OCc3ccccc3)CC=C12 (configuration not stated)	?
26	CC(=O)c1sc(N/N=C\c2ccccc2O)nc1C	-4%
27	COc1ccccc1C(=O)Nc1ccc(Cc2ccncc2)cc1	-5%
28	COCCN1CCN(C(=O)c2cc(COc3ccc(Cl)cc3OC)on2)CC1	-2%
29	CNCc1cn2cc(Cl)ccc2n1	-20%
30	O=C(Nc1c2c(nn1-c1ccc(Cl)cc1)CS(=O)(=O)C2)C1CC1	-4%

Down the list, quoted from above.
Compounds 2 to 8 in VDR inhibitor: ?, 5%, 17%, -8%, 3%, 10%, 2%

Three entries out of the list above, arranged by the number in VDR inhibitor, ascending.
item | mol | VDR inhibitor
22 | COc1ccc(Cl)cc1NC(=O)COC(=O)Cc1cccs1 | -27%
9 | OCC1C2c3ccccc3C(c3ccccc32)C1CO (configuration not stated) | 1%
6 | CCCCNC(=O)c1ccc(NC(=O)CC2SC(N3CCCC3)=NC2=O)cc1 (configuration not stated) | 3%

Further entries
#	SMILES	VDR inhibitor
31	CCOC(=O)C(=O)Cc1nc2ccccc2s1	-7%
32	C=CCc1cc(C)ccc1OCCOCCN1CCN(C)CC1	-6%
33	O=c1cccc2c1c1cc[nH]c3ccc(=O)n2c31	-7%
34	O=C(c1ccco1)N1CCC2(CCCN(C(c3ccccc3)c3ccccc3)C2)CC1	35µM*
35	C=CCN1C(=O)c2oc3ccccc3c(=O)c2C1c1ccc(O)c(OC)c1 (configuration not stated)	-7%
36	CCC(Sc1nc2ccccc2c(=O)n1CC1CCCO1)C(=O)NCc1cccnc1 (configuration not stated)	4%
37	O=C(c1cnccn1)N1CCC2(CCCN(C(c3ccccc3)c3ccccc3)C2)CC1	-9%
38	COc1ccccc1C(=O)NCC(=O)NCCCN1CCOCC1	-19%
39	Cc1ccccc1C(=O)Nc1ccc2nc3n(c(=O)c2c1)CCCC3	10%
40	Cc1ccc(C2=NCCNC2=O)c(C)c1	5%
41	Cc1ccc(Cl)cc1Nc1nn2c(=O)c3ccc(C(=O)NCc4ccc(F)cc4)cc3nc2s1	1%
42	Cc1ccccc1-n1c(=O)cc(N2CC(C)OC(C)C2)[nH]c1=O (configuration not stated)	8%
43	CCOC(=O)C1=C(CN2CCN(c3cccc(Cl)c3)CC2)NC(=O)NC1c1ccc(Cl)cc1 (configuration not stated)	-13%
44	COc1ccc(-c2c[n+]3c(n2-c2ccccc2)CCCCC3)cc1	0%
45	CN(CCc1ccccc1)C(=O)c1ccc(NC(=O)Cc2cccc(NC(=O)C3CCN(C(=O)C4CCCCC4)CC3)c2)cc1	8%
46	COc1cccc(C2(C)NC(=O)N(CC(=O)c3cc(C)n(C4CC4)c3C)C2=O)c1 (configuration not stated)	-12%
47	COc1cccc(C(=O)NCCNC(=O)c2ccco2)c1	0%
48	O=C(NCCO)c1ccc(-c2nnc(N3CCOCC3)c3ccccc23)cc1	11%
49	COc1ccc2ccc(OC)c(/C=N/n3cnnc3)c2c1	?
50	CCc1ccc(NC(=O)c2cc(C(C)=O)n3ccccc23)cc1	4%
51	COCCn1c(SCC(=O)Nc2sccc2C(N)=O)nc2cc(Cl)ccc2c1=O	18%
52	CCOc1ccc(OCc2ccc(C(=O)N(C)c3ccccc3)o2)cc1	-3%
53	CCN(CC)Cc1c(O)ccc2c(=O)c(Oc3ccccc3OC)coc12	17%
54	CN(C)C(=O)c1cn(-c2ccccc2)nc1-c1cc2ccccc2o1	11%
55	C#CCn1ccc(O)c(Cc2c(F)cccc2Cl)c1=O	-10%
56	CCN(CC)C(=O)[C@H]1CC(CC(=O)NCCCn2ccnc2)C(=O)N2CCc3c([nH]c4ccccc34)[C@]12C (some centres not stated)	-15%
57	CC(C)(C)NC(=O)NC(=O)Cn1cc(C(F)(F)F)ccc1=O	-18%
58	CNc1nc(C)c(C(C)(C)C)s1	8%
59	O=C(c1ccc(-n2cccc2)cc1)N1CCN(Cc2ccccc2)CC1	17%
60	COc1cccc(OCC(O)CNC2CCCC2)c1 (configuration not stated)	-24%
61	O=C(Nc1nnc(S(=O)(=O)N2CCCCC2)s1)c1ccccc1Br	-13%&9%
62	COc1ccc(CNC(=O)CCCn2c(=O)c3cccn3c3cccnc32)cc1	10%
63	Cc1ccc(C(=O)NC(=S)Nc2cccc(NC(=O)c3ccccc3Cl)c2)cc1[N+](=O)[O-]	-14%
64	CC(/C=N/NC(=O)c1n[nH]c2c1CCC2)=C\c1ccccc1	9%
65	Cc1ccc2nc(SCC(=O)Nc3nonc3C)[nH]c2c1	17%
66	COc1ccc(NS(=O)(=O)c2cccc(C(=O)N/N=C/c3ccc4c(c3)OCCO4)c2)cc1	13%
67	COc1ccccc1OCCn1c(NC(=O)c2ccccc2Cl)nc2ccccc21	-11%
68	COc1cccc(C2CC(c3ccccc3OC)n3ncnc3N2)c1 (configuration not stated)	-9%
69	CN(C(=O)COC(=O)c1ccc[nH]c1=O)C1CCCCC1	-8%
70	COc1cc2c(C(=O)N(C)c3ccc(F)cc3)cn(C)c(=O)c2cc1OC	-11%
71	CCC(C)NC(=O)Cn1c(=O)cc(-c2ccccc2)c2c(C)nn(C)c21 (configuration not stated)	10%
72	CCCCNC(=O)CSc1nnc(Cc2ccccc2)n1CC	-6%
73	O=C(CN1CCN(c2ccc(O)cc2)CC1)N1CCc2ccccc21	2%
74	CC(C)NC(=S)NCc1cccnc1	4%
75	CCOn1c(=O)c(-c2cc(OC)ccc2OC)[n+]([O-])c2ccccc21	-15%
76	CCOC(=O)N1CCC(NC(=O)CCc2cn(C)c3ccccc23)CC1	-1%
77	CC1(C)C(=O)C2(CCCC2)C(=O)OC1c1ccco1 (configuration not stated)	-14%
78	COc1ccc(NS(=O)(=O)c2cc(NC(=O)c3ccc(S(=O)(=O)N(C)C)cc3)ccc2N2CCOCC2)cc1	4%
79	N#Cc1ccsc1NC(=O)COC(=O)c1cc2ccccc2cc1O	-15%
80	O=C(N/N=C/c1cccc2ccccc12)c1cccs1	6%
81	O=C(Nc1cccc(F)c1)C1CCN(S(=O)(=O)c2cnc[nH]2)CC1	-7%
82	Cc1ccc(OCCNC(=O)CCC(=O)N2CCOCC2)cc1	6%
83	Cc1nn(-c2cccc(Cl)c2)c2nc(-c3ccncc3)cc(C(=O)N3CCOCC3)c12	0%
84	COc1ccc(-n2nc(C(=O)NCC(=O)Nc3cccc(NC(C)=O)c3)c3ccccc3c2=O)cc1	-16%
85	CC(C)CC(=O)Nc1nnc(S(=O)(=O)N(C)Cc2ccc(Cl)cc2)s1	4%
86	Cc1ccc(S(=O)(=O)Cn2nnnc2C(c2ccc(F)cc2)N2CCC(C(N)=O)CC2)cc1 (configuration not stated)	-2%
87	CC1(C)Cc2noc(N)c2C(C)(C)N1OC(=O)c1ccccc1	0%
88	CC(C)NCC(O)COCCOc1ccc(Cl)cc1 (configuration not stated)	1%
89	CNC(=O)c1c(Cl)cnn1-c1ccc(C)cc1	11%
90	COc1ccc(C(c2sc3nc(C)nn3c2O)N2CCCCC2)cc1 (configuration not stated)	-7%

Entries shown so far that contain a cyano group, in the order listed:
#	SMILES	VDR inhibitor
25	N#CC1=C(N)C(C#N)(C#N)C(c2ccncc2)C2CN(C(=O)OCc3ccccc3)CC=C12 (configuration not stated)	?
79	N#Cc1ccsc1NC(=O)COC(=O)c1cc2ccccc2cc1O	-15%

Later entries
#	SMILES	VDR inhibitor
91	Cc1cc(=O)n(CC(=O)O)c2ccccc12	-11%
92	NC(=S)N/N=C/c1ccccc1O	-10%
93	CCN(CC)C(=O)c1sc(NC(=O)c2ccoc2C)c(C(=O)OC)c1C	?
94	CCOc1ccccc1NC(=O)Cn1c(=O)ccc2cc(S(=O)(=O)N3CCC(C)CC3)ccc21	-3%
95	Cc1cccc(NC(=O)C(Cc2ccccc2)N2Cc3ccccc3C2=O)c1C (configuration not stated)	16%
96	O=C(Nc1ccc(F)cc1)C1CCCN(S(=O)(=O)c2ccc3[nH]c(=O)ccc3c2)C1 (configuration not stated)	-21%
97	Cc1c(CC(=O)N2CCN(C(=O)C3COc4ccccc4O3)CC2)c(=O)oc2cc(O)cc(O)c12 (configuration not stated)	-10%
98	Cn1c(SCC(=O)Nc2ccccc2F)nc2c(c1=O)SCC2	0%
99	O=C(CCCn1c(=S)[nH]c2cc3c(cc2c1=O)OCO3)N1CCN(C2CCCCC2)CC1	-2%
100	O=C(CC1c2ccccc2Oc2ccccc21)Nc1ccccc1F	-8%
101	O=C(c1ccc2n[nH]nc2c1)N1CCN(c2ccc(C(F)(F)F)cn2)CC1	9%
102	CC1CCN(c2ncnc3c2cnn3-c2ccc(F)cc2)CC1	-3%
103	O=C(NCCc1ccccc1F)c1cccc2cccnc12	12%
104	COc1cccc(C2C(C#N)=C(N)Oc3c2oc(CO)cc3=O)c1 (configuration not stated)	10%
105	Cc1cc(C)cc(NC(=O)CCCN2C(=O)COc3ccc(C)cc32)c1	4%
106	Fc1ccc(-c2ccc(/C=N\n3cnnc3)o2)cc1Cl	-13%
107	Cc1oc(-c2ccc(Cl)cc2)nc1CS(=O)CC(=O)NCCCN1CCCC(C)C1 (configuration not stated)	2%
108	CCCc1cc(=O)[nH]c(Nc2ccc(N3CCCCC3)cc2)n1	4%
109	CCCCn1nnnc1SCC(=O)N1CCOCC1	2%
110	COc1ccc(-c2cc(C(=O)N3CCN(c4ccccc4)CC3)c3ccccc3n2)cc1	-24%
111	COCCCNc1nc2nonc2nc1N(C)CC1CCCN1C (configuration not stated)	-22%
112	COc1ccc(CCNC(=O)c2cc(-c3ccccc3)on2)cc1OC	13%
113	COC(=O)C1=C(C)N(CCCC(=O)O)C(=O)NC1c1cccc(Cl)c1Cl (configuration not stated)	5%
114	COc1cc2c(cc1OC)C(c1ccc3c(c1)OCO3)C1=C(CC(C)(C)CC1=O)N2 (configuration not stated)	-6%
115	O=C(COCc1cc(-c2cccs2)on1)Nc1ccc(OC(F)(F)F)cc1	19%
116	CC(=O)NCCC(=O)Nc1cccc(S(=O)(=O)N(C)c2ccccc2)c1	-10%
117	Cc1ccccc1NC(=S)NCc1ccc2c(c1)OCO2	-1%
118	O=C(C1CCN(S(=O)(=O)c2ccccc2F)CC1)N1CCCC1	-11%
119	COc1ccccc1-c1nnc(SCC(N)=O)o1	11%
120	Cc1ccc(Cc2cnc(N3C(=N)SC(C)C3=O)s2)cc1 (configuration not stated)	-11%

Part of the list above in order of number of heavy atoms, ascending:
#	SMILES	VDR inhibitor
98	Cn1c(SCC(=O)Nc2ccccc2F)nc2c(c1=O)SCC2	0%
105	Cc1cc(C)cc(NC(=O)CCCN2C(=O)COc3ccc(C)cc32)c1	4%
115	O=C(COCc1cc(-c2cccs2)on1)Nc1ccc(OC(F)(F)F)cc1	19%

Further records.
#	SMILES	VDR inhibitor
121	CCCN(CCC)c1nc(N)nc(C#N)n1	?
122	COc1ccccc1N1CCN(C(=O)c2cc3c(=O)n(Cc4cccnc4)ccc3nc2C)CC1	-5%
123	CC1(C)CC(=O)C2=C(C1)OC(N)=C(C#N)C2c1ccccc1[N+](=O)[O-] (configuration not stated)	-7%
124	C=CCOC(=O)/C(=C/c1cccnc1)NC(=O)c1ccccc1	-8%
